AmpC nodet inh: blocks E. coli AmpC beta-lactamase in absence of detergent; AID 585; P00811; 71,000 tested, 1.8% active; Potency, µM (series often up to 28.7 µM), inactives show at the highest dose activity change, negative = inhibition; AmpC nitrocefin hydrolysis, absorbance 480 nm, no detergent; potencies from a single point are estimates; active = falling curve, for most hits resting on a single point; inconclusive = weak or doubtful change; inactive = flat or rising curve; further: % of control where 0% means no effect; about half of the hits show no inhibition at the top dose; a quarter of the inactives give rising signals
Target sequence (P00811 whole entry, looked up): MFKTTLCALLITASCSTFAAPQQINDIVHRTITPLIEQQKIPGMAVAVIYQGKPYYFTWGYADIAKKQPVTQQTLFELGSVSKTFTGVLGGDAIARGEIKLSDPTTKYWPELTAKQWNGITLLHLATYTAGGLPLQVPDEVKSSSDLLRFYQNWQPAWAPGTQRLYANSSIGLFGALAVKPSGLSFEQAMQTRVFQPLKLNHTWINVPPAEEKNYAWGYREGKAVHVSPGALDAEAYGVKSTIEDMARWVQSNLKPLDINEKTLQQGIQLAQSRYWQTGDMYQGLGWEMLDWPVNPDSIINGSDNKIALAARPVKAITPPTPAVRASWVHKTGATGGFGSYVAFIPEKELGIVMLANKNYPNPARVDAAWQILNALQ
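Enzyme, pH 7.0 phosphate. Compound titrations were pre-incubated with AmpC for 15 min at room temperature before nitrocefin (stock 800 uM) addition; product formation was recorded at 480 nm every 20 s for 4 min.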
* marks the source's active call; other numbers are inactive results; ? = inconclusive; & = joins results of further samples; [ ] = remark or other dose. Potency means the concentration at half of the fitted maximal effect.

SMILES | AmpC nodet inh
CC(C)CN1CCC2(CC1)CCN(C(=O)c1ccco1)CC2 | -2%
COc1ccc(OCC(=O)Nc2cccc3cccnc23)cc1 | -2%
C=CCSc1nnc2c(n1)[nH]c1c(C)cccc12 | -10%
O=C(O)c1cscc1Cc1cccs1 | -10%[5.75 µM]
CC(=O)Nc1ccc(S(=O)(=O)NCCc2csc(C)n2)cc1 | -14%
Cc1ccccc1Nc1nnc(C)c(=O)[nH]1 | -8%
COc1ccc(-n2nc3ccccc3n2)cc1 | -11%
Cc1cc(NC(=O)CN2CCC(O)(c3cccc(F)c3)CC2)no1 | 9%
CCCOC(=O)CCNc1n[nH]c(=O)[nH]c1=O | -1%
COC(=O)[C@@]1(Cc2ccc(F)cc2)[C@H]2c3cc(C(=O)N(C)C)n(Cc4ccc(C(F)(F)F)nc4)c3C[C@H]2CN1C(=O)c1ccccc1 | 166%
COc1ccc(-c2nnc(CSc3nnc(-c4ccncc4)n3C3CCCCC3)o2)cc1OC | 78%
Cn1c(=O)oc2cc(S(=O)(=O)NCCC(=O)N3CCc4ccccc43)ccc21 | -6%
CCC(C)NC(=O)CSc1nnc(-c2ccc(C(C)(C)C)cc2)n1C (stereo unspecified) | 66%
CN(CC(=O)NCc1ccco1)S(=O)(=O)c1cccc2cccnc12 | -10%
C[C@@H]1CC[C@@H]2N(C1)C[C@H]1[C@@](O)([C@H](O)C[C@]3(O)[C@H]4CC[C@H]5[C@]6(O)O[C@]4(C[C@]13O)[C@@]5(C)CC[C@@H]6O)[C@@]2(C)O | -5%[5.75 µM]
Cc1ccc(C)c(N(C)S(=O)(=O)c2cccc3nsnc23)c1 | 0%
O=C(Nc1cccc(Cl)c1)N(CCCN1CCOCC1)Cc1ccccc1F | 28%
CCN(CC)c1ccc(C2C(C(=O)OC)=C(C)NC(C)=C2C(=O)OC)cc1 | 61%
CCOC(=O)c1cccc(NC(=O)CNS(=O)(=O)c2cccs2)c1 | -19%
CCn1c(SCC(=O)c2ccc(C)cc2)nnc1-c1ccoc1C | 50%
COCCn1c(=O)c(C)nc2cnc(Nc3cccc(OC)c3)nc21 | 80%
CCCn1c(CCC(=O)O)ccc1-c1ccc(OC)cc1 | 9%
O=[N+]([O-])c1ccc(Cl)cc1Cl | -3%
Cc1ccc(S(=O)(=O)N(C)CC(=O)Nc2ccncc2)cc1 | -2%
COc1cccc(CN2CCCC(C(=O)N3CCCCC3)C2)c1OC (stereo unspecified) | -8%
CCCOc1ccc(/C(O)=C2\C(=O)C(=O)N(CCCN(C)C)C23C(=O)N(C)c2ccccc23)cc1 (stereo unspecified) | 13%
O=C(CCN1C(=O)C2CC=CCC2C1=O)N1CCN(c2ccccn2)CC1 (stereo unspecified) | 11%
COC(=O)c1ccccc1NC(=O)CN1CCN(C23CC4CC(CC(C4)C2)C3)CC1 | 33%
CC(C)c1nc(N2CCOCC2)c(C#N)c2c1CCCC2 | 41%
CN1C(=O)C(O)(CC(=O)c2ccc3c(c2)OCO3)c2ccccc21 (stereo unspecified) | 23%
COc1ccc(CCNC(=O)CSc2nnc(CNC(=O)c3ccco3)o2)cc1OC | 2%
CCOC(=O)c1oc2c(C)c(O)ccc2c(=O)c1-c1nncn1-c1ccccc1 | -9%
COc1ccc2c(c1O)-c1c(OC)c(OC)cc3c1[C@@H](C2)N(C)CC3 | -11%
COc1cccc(/C=N/n2c(C)nc3ccccc3c2=O)c1O | -6%
CCOC(=O)C1CCN(C(=O)c2sc3nc(-c4ccccc4)cn3c2C)CC1 | 110%
O=C(NCCCN1CCOCC1)c1cc2ccccc2oc1=O | 0%
CC(C)(NO)/C(=N/O)c1ccc(Br)cc1 | -3%
COc1cc2c(cc1OC)C(c1ccccc1)N(C(=O)c1ccco1)CC2 (stereo unspecified) | 105%
O=C(NC1CCCCCC1)C1C2C=CC3(CN(Cc4cccnc4)C(=O)C13)O2 (stereo unspecified) | 3%
O=S(=O)(Cc1ccccc1)NCC1CCCO1 (stereo unspecified) | -5%
O=C(OC1CCOC1=O)c1ccc(S(=O)(=O)N2CCCCCC2)cc1 (stereo unspecified) | 10%
Cn1c(=O)cc(SCC(=O)NCCCN2CCN(c3ccccc3F)CC2)c2ccccc21 | 128%
COc1ccc(C)cc1NC(=O)C1CCCN1C(=O)OCc1ccccc1 (stereo unspecified) | 35%
CCOC(=O)C1=C(C)S/C(=C\N(C)C)C1=O | -9%
CN(C)c1ccc(-c2cc(NCc3cccnc3)ncn2)cc1 | 13%
CC(C)C12CN3CC(C(C)C)(CN(C1)C3c1ccc3c(c1)OCO3)C2=O (stereo unspecified) | 43%
O=C(Nc1ccccc1N1CCN(c2ccccc2)CC1)c1cccc(F)c1 | -6%
CCC(C)[C@H](NC(=O)Nc1cccc(OC)c1)C(=O)OC (stereo partly specified) | -19%
CCOC(=O)c1ccccc1NC(=O)Cn1cnc2c(cnn2-c2ccc(OC)cc2)c1=O | 5%
O=c1/c(=C/c2ccco2)sc2nc(-c3ccccc3Br)nn12 | ?
CCn1cc(C(=O)N2CCN(C(=O)c3ccco3)CC2)c2cc(OC)c(OC)cc2c1=O | 15%
Cn1c(=O)c2c(ncn2CC(O)CNc2ccc(Br)cc2)n(C)c1=O (stereo unspecified) | 43%
Cc1cc(C)n2cc(CSC3=NCCS3)nc2n1 | -1%
CCC(=O)N1CCN(C(=O)CC)C1c1ccccc1 | -3%
Cc1ccc(Nc2nc(N)nc(CN3CCN(c4ccccc4F)CC3)n2)cc1 | 96%
CS(=O)(=O)N1CCN(CC2CC3C=CC2C3)CC1 (stereo unspecified) | -5%
C=CCc1ccccc1OCC(O)CN(C(C)C)C(C)C (stereo unspecified) | 1%
CCc1ccccc1N(CC)C(=O)c1cn(CC)c(=O)c2cc(OC)c(OC)cc12 | 104%
O=C(NCc1ccc2c(c1)OCO2)c1cccs1 | 7%
Cc1ccc(S(=O)(=O)NCC(=O)N(CC(=O)NCc2ccccc2)CC2CCCO2)cc1 (stereo unspecified) | 40%
(cont.)
SMILES | AmpC nodet inh
CC(C)Nc1nc(NC(C)C)nc(Oc2ccc(/C=N/O)cc2)n1 | -2%
CN1CCC2(CC1)NC(=O)C1=C(CN(C)CC1)N2 | 2%
Cc1cccc(C(=O)NC2CCN(CC(=O)N3CCOCC3)CC2)c1 | -3%
O=C1C=C(Nc2nc(C(=O)O)cc(=O)[nH]2)c2ccccc2C1=O | -1%[5.75 µM]
CC(=O)NC(CCS(C)(=O)=O)C(=O)Nc1cccc2ccccc12 (stereo unspecified) | 0%
CC(=O)N(CC1CCCO1)C1(C(=O)NC2CCCC2)CCCCC1 (stereo unspecified) | 5%
CCCCC(=O)N(c1ccc(C)c(C)c1)C1C=CS(=O)(=O)C1 (stereo unspecified) | 45%
Cn1c(=O)[nH]c(=O)c2c1nc(N1CCCCCC1)n2CCSc1nc2ccccc2[nH]1 | 13%
CCOC(=O)CSc1nc2cc(C(=O)NCC3CCCO3)ccc2c(=O)n1Cc1ccco1 (stereo unspecified) | 96%
COc1ccc(N2CCN(CCNC(=O)CCS(=O)(=O)c3cccc4nsnc34)CC2)cc1 | 33%
CCC(=O)N1CCN(c2ccc(NC(=O)c3cc4ccccc4o3)cc2Cl)CC1 | 109%
O=C(NCC(c1cccnc1)N1CCN(c2ccc(F)cc2)CC1)c1ccc(F)cc1 (stereo unspecified) | 34%
COC(=O)c1cc(-c2c(C)oc3cc(O)ccc3c2=O)c(C)o1 | -3%
O=C(COc1ccccc1)Nc1ccc(S(=O)(=O)NCc2ccco2)cc1 | -9%
CCn1c(SCC(=O)Nc2cc(NC(C)=O)ccc2OC)nnc1-c1ccccn1 | 2%
Cc1cc(C)c2cc(CN(CCO)C(=O)Nc3ccc(Cl)cc3)c(=O)[nH]c2c1 | 118%
O=S(=O)(Cc1ccccc1)N1CCCC1 | -8%
CCOC(=O)CSc1nnc(CNC(=O)c2cc(OC)c(OC)c(OC)c2)n1C | 7%
CNCC[C@H](Oc1ccccc1OC)c1ccccc1 | 36%
COc1cc(Cl)c(C)cc1NC(=O)CSC | 7%
O=C(O)c1cccc(C(=O)O)c1S(=O)Cc1ccccc1 (stereo unspecified) | 3%[5.75 µM]
COc1ccccc1OCc1ccc(C(=O)Nc2ccncc2)o1 | 8%
N#C/C(=C1/CCCCCN1)c1nnc2n1CCCCC2 | -2%
O=C(NC1CSC/C1=N\O)c1ccccc1 (stereo unspecified) | -3%
COc1ccc(C)cc1S(=O)(=O)N(CC(=O)N1CCCC1)c1ccccc1 | 31%
CCOC(=O)c1c(-c2cccs2)csc1NC(=O)CSc1ncn[nH]1 | 8%
CCCOc1ccc(/C(O)=C2\C(=O)C(=O)N(CCCOC)C23C(=O)N(C)c2ccccc23)cc1 (stereo unspecified) | 10%
CC(=O)OC(C(=O)NC1CCCCC1)c1ccc(C)cc1 (stereo unspecified) | 14%
OCc1cc([C@@H](O)CNCCCCCCOCCCCc2ccccc2)ccc1O | 39%&32%
O=C(c1cc(-c2ccc3c(c2)OCO3)on1)N1CCOCC1 | -4%
Cc1cc(C(=O)OCC(=O)NCCc2ccccc2)c(C)o1 | 20%
O=C(Nc1nc2c(s1)CCCC2)C1COc2ccccc2O1 (stereo unspecified) | -3%
O=C(O)c1oc2ccc(Br)cc2c1-n1cccc1 | -11%
CCCn1c(=O)c2ccccc2n2c(SCc3nnc(-c4ccccc4Br)o3)nnc12 | 35%
CCOC(=O)c1ccc(Nc2nc(C)cc(C)c2C#N)cc1 | 32%
O=C(O)C1CC=CCC1C(=O)Nc1cccc(C(=O)N2CCCCC2)c1 (stereo unspecified) | 5%
NC(CC(=O)OC1CCCCC1)C(=O)OC1CCCCC1 (stereo unspecified) | 43%
O=C(O)c1cc(C(=O)O)nc(C(=O)O)c1 | -12%[5.75 µM]
O=S(=O)(Nc1ccc(S(=O)(=O)N2CCCCC2)cc1)c1ccc(Br)s1 | -10%
Fc1ccc2c(c1)nnn2C1CCN(Cc2nnnn2CCc2ccccc2)CC1 | 74%
O=C(c1ccc(CS(=O)(=O)c2ccc(Br)cc2)o1)N1CCN(c2ccccn2)CC1 | 63%
O=S(=O)(NC1CCCCC1)c1cccc(-c2nnc(-c3ccccc3)o2)c1 | -6%
COC(=O)CN1C(=O)C2(C(C#N)=C(N)Oc3n[nH]c(-c4cccs4)c32)c2ccccc21 (stereo unspecified) | -1%
CCSc1nc2ccccc2n1CC(=O)OC | -3%
O=S(=O)(c1ccc(Nc2ccc3c(c2)OCO3)nc1)N1CCOCC1 | -13%
c1ccc(OCCCn2nnc(-c3ccc(N4CCOCC4)cc3)n2)cc1 | -22%
O=c1[nH]c2ccccc2c2ccccc12 | -13%
CCOc1ccc(CCNC(=O)C2CCCN(S(=O)(=O)c3c(C)n[nH]c3C)C2)cc1OCC (stereo unspecified) | 74%
O=C(CCCc1cccs1)Nc1nc2c(s1)CCCC2 | -13%
NC(=O)c1cc(-c2ccccc2)nc(N2CCCCCC2)n1 | 11%
Cc1ccc(-c2nnc3c4ccccc4c(C)nn23)cc1NC(=O)c1ccco1 | 51%
COc1ccc(C2C(C(=O)Nc3ccccc3)=C(C)Nc3nc(CCCO)nn32)cc1 (stereo unspecified) | 20%
CCOCCn1c(N2CCN(c3ccccc3)CC2)nc2c1c(=O)n(C)c(=O)n2C | 132%
COc1cccc2cc(C(=O)Nc3cccc(C)n3)c(=O)oc12 | -8%
CN1CCN(C(=O)c2ccccc2NC(=O)c2cccs2)CC1 | 4%
S=c1nc(-c2ccccc2)n(CCN2CCOCC2)c2c1CCCC2 | -10%
O=C(c1ncc[nH]1)c1ccco1 | 1%
Cc1ccc(-n2c(CSc3nc(C)cc(C)n3)nnc2SCC(=O)NCc2ccco2)cc1 | 77%
CC(C)CNS(=O)(=O)c1ccc(CCC(=O)O)cc1 | -8%
COc1ccc(-c2nc(CN3CCC(C(=O)NC(C)C)CC3)c(C)o2)cc1OC | 6%
Next structures follow.
SMILES | AmpC nodet inh
CN(C)C(=O)Nc1cccc(C(F)(F)F)c1 | -4%
O=[N+]([O-])c1ccc(CSc2ncnc3c2ncn3[C@@H]2O[C@@H](CO)[C@@H](O)[C@H]2O)cc1 | 18%
O=C(Cn1c(=O)n(-c2cccc(Cl)c2)c(=O)n1CC(=O)N1CCCCC1)N1CCCCC1 | 15%
Cc1cc(-c2ccccc2)nc(N2CCC(C(=O)NC(C)C)CC2)n1 | 51%

Molecules shown so far containing an aryl thioether with sulfur outside any ring (15):
SMILES | AmpC nodet inh
C=CCSc1nnc2c(n1)[nH]c1c(C)cccc12 | -10%
COc1ccc(-c2nnc(CSc3nnc(-c4ccncc4)n3C3CCCCC3)o2)cc1OC | 78%
CCC(C)NC(=O)CSc1nnc(-c2ccc(C(C)(C)C)cc2)n1C (stereo unspecified) | 66%
CCn1c(SCC(=O)c2ccc(C)cc2)nnc1-c1ccoc1C | 50%
COc1ccc(CCNC(=O)CSc2nnc(CNC(=O)c3ccco3)o2)cc1OC | 2%
Cn1c(=O)cc(SCC(=O)NCCCN2CCN(c3ccccc3F)CC2)c2ccccc21 | 128%
Cn1c(=O)[nH]c(=O)c2c1nc(N1CCCCCC1)n2CCSc1nc2ccccc2[nH]1 | 13%
CCOC(=O)CSc1nc2cc(C(=O)NCC3CCCO3)ccc2c(=O)n1Cc1ccco1 (stereo unspecified) | 96%
CCn1c(SCC(=O)Nc2cc(NC(C)=O)ccc2OC)nnc1-c1ccccn1 | 2%
CCOC(=O)CSc1nnc(CNC(=O)c2cc(OC)c(OC)c(OC)c2)n1C | 7%
CCOC(=O)c1c(-c2cccs2)csc1NC(=O)CSc1ncn[nH]1 | 8%
CCCn1c(=O)c2ccccc2n2c(SCc3nnc(-c4ccccc4Br)o3)nnc12 | 35%
CCSc1nc2ccccc2n1CC(=O)OC | -3%
Cc1ccc(-n2c(CSc3nc(C)cc(C)n3)nnc2SCC(=O)NCc2ccco2)cc1 | 77%
O=[N+]([O-])c1ccc(CSc2ncnc3c2ncn3[C@@H]2O[C@@H](CO)[C@@H](O)[C@H]2O)cc1 | 18%

Screening results (PubChem)

These rows are one share of the data; the hit share may differ from the screen's.
